Calb biofilm kill = clotrimazole potentiators killing C. albicans biofilm, primary screen, 4-compound mixtures | 120,000 tested, 0.02% active | inhibition, % at 7.6 µM | C. albicans biofilm persisters + clotrimazole, fluorescence viability; primary screen in compound mixtures of four per well;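 active = inhibition above 30.3% in the primary screen of four-compound pools, then above 30% when the compound was retested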;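 note: compounds exposed to preformed 24 h biofilms for 48 h; the number belongs to the whole pool; some results filed as inactive read as strong as hits; inactives centre near 12; 0% = biofilm with clotrimazole alone and 100% = kill control; retested singly at about 60 µM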
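Assay system: C. albicans biofilms / Medium: RPMI/MOPS medium, pH 7.0 / Schedule: biofilm formation 24 h, compound exposure 48 h, 37 °C / Measured by: Alamar Blue fluorescence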
* marks the source's active call; other numbers are inactive results. The list is partial; the hit share may differ from the screen's.

SMILES	Calb biofilm kill
CCOC(=O)c1c(C)[nH]c(C(=O)N/N=C/c2ccc(Br)cc2)c1C	8
COc1ccc(-n2c(C(C)n3nc(C)c([N+](=O)[O-])c3C)n[nH]c2=S)cc1 (configuration not stated)	21
O=C(Cc1cccs1)Nc1cccc(-c2ccc3nncn3n2)c1	14
Cc1nc(N2CCCCC2)sc1C(=O)c1ccc(SCCO)c([N+](=O)[O-])c1	9
C=CCn1c(SCC(=O)NC2CC2)nc2sc(CC)cc2c1=O	4
O=C(N/C(=C\c1ccc(Br)cc1)C(=O)N1CCCC1)c1ccccc1F	0
CN(Cc1ccno1)C(=O)CC1C(=O)NCCN1CC(c1ccccc1)c1ccccc1 (configuration not stated)	5
COc1ccc(C(CCNC(C)c2ccccc2)c2ccc(F)cc2)cc1 (configuration not stated)	20
O=c1nc(SCc2c(F)cccc2Cl)nc(-c2ccc(Cl)cc2)[nH]1	19
COCCn1c(SCC(=O)c2cc(C)n(C)c2C)nc2ccccc2c1=O	16
Cc1ccc(S(=O)(=O)NC(=O)c2ccccc2)cc1C(C)C	3
COc1ccc(CN(Cc2ccc(C(=O)O)cc2)C(=S)Nc2ccccc2F)cc1OC	8

Arranged by molar mass (lowest first): some entries from above.
SMILES	Calb biofilm kill
C=CCn1c(SCC(=O)NC2CC2)nc2sc(CC)cc2c1=O	4
CCOC(=O)c1c(C)[nH]c(C(=O)N/N=C/c2ccc(Br)cc2)c1C	8
Cc1nc(N2CCCCC2)sc1C(=O)c1ccc(SCCO)c([N+](=O)[O-])c1	9
O=C(N/C(=C\c1ccc(Br)cc1)C(=O)N1CCCC1)c1ccccc1F	0

The list goes on:
SMILES	Calb biofilm kill
COC(=O)c1ccc(-c2noc(CN(C)Cc3ccncc3C)n2)cc1	16
O=C(COc1cccnc1[N+](=O)[O-])N1CCN(S(=O)(=O)c2ccc3ccccc3c2)CC1	2
COc1cc(OC)c2c(c1O)OC(c1ccccc1)CC2=O (configuration not stated)	25
O=C(Nc1cccs1)Nc1ccc(Br)cc1F	12
O=C(CSc1nc2ccccc2s1)Nc1ccc2c(c1)OCO2	14
Nc1[nH][nH]c(=O)c1N=Nc1cccc(Cl)c1	27
CCCc1nc2oc3ccccc3c(=O)c2c(=O)n1CCCOC	11
CSc1cccc(NC(C)=O)c1	10
Cc1nn(C)c(C)c1CNC(=O)/C=C/c1ccccc1F	16
O=C(COC(=O)c1ccc2ncsc2c1)NC(=O)NCc1ccccc1	6
N#CCCn1cc(C(CC(=O)c2ccccc2)C(=O)O)c2ccccc21 (configuration not stated)	8
CCOc1ccc(NC(=O)Cn2sc3nc(C)cc(C)c3c2=O)cc1	21
Cc1ncc([N+](=O)[O-])n1CC(=O)NCCc1ccccc1	9
Cc1[nH]n(-c2ccccc2)c(=O)c1/C=N/NC(=O)C(C)C	10
COc1ccc(OC)c(NC(=O)c2cnc(Nc3ccccc3OC)c3ccccc23)c1	15
C=CCC1(C#N)C(=S)NC2=C(C(=O)CC(C)(C)C2)C1c1ccc(Br)cc1 (configuration not stated)	20
Fc1ccccc1Sc1ccccc1CNC1=NCCN1	8
COC(=O)[C@@]1(Cc2ccc(F)cc2)[C@H]2c3cc(C(=O)N(C)C)n(Cc4ccccc4)c3C[C@H]2CN1C(=O)c1ccccc1	14
CN(C(=O)CSC1=NC2C(N=N1)c1cc(Br)ccc1N2C)C1CCCCC1 (configuration not stated)	10
Cc1noc(C)c1CCC(=O)N1CCCC(CCC(=O)NCc2ccccc2F)C1 (configuration not stated)	13
CC(C)(C)c1ccc(NC(=O)N2CCCN(c3c(Cl)cncc3Cl)CC2)cc1	20
CC(C(=O)Nc1cc([N+](=O)[O-])ccc1Cl)N1CCN(c2ccccc2)CC1 (configuration not stated)	15
CN(C)CCCN(C(=O)c1cc2ccccc2oc1=O)c1nc2c(F)cccc2s1	15
COc1cc(Cl)cc(C=O)c1OCC(=O)O	9
C#CCNC(=O)c1ccc(OCc2ccccc2)cc1Cl	5
NS(=O)(=O)c1ccc(Nc2ccccc2)c([N+](=O)[O-])c1	13
COc1cc(CNCCO)cc(Cl)c1OCc1ccccc1Cl	17
Cc1ccc(S(=O)(=O)N2CCCN(C(=O)OC(C)(C)C)CC2)cc1	10
O=C(Nc1ccc(F)cc1)c1cc2c(s1)CCCC2	15
Cc1ccc(NC(=O)c2cc3ccccc3oc2=O)cc1S(=O)(=O)N(C)C	10
Cc1nc(NCc2ccccn2)c2c3c(sc2n1)CCCC3	15
Cn1c2ccccc2c2n[nH]c(=O)nc21	8
CCS(=O)(=O)c1ccc(C(=O)NC)c(Cl)c1Cl	6
Cc1nc(SCC(=O)NC(=O)NC(C)C)nc(C)c1C	8
CN1CCC(=NNc2ncnc3sc4c(c23)CCCC4)CC1	4
COc1ccc(CCn2c(-c3ccc(OC)cc3)nc3c(c(=O)c4ccccc4n3C)c2=O)cc1	24
CC(=O)Nc1ccc(NC(=O)COC(=O)C2(c3ccc(Cl)cc3)CCCC2)cc1	5
CO/N=C\c1cc(C(=O)c2ccc(Cl)cc2Cl)cn1C	23
O=S(=O)(c1ccc(NC(=S)N/N=C/c2ccc(N3CCOCC3)cc2)cc1)N1CCOCC1	17
COC(=O)CC1NCCc2cc(OC)c(OC)cc21 (configuration not stated)	4
COC(=O)CSc1[nH]c2ccccc2c1[N+](=O)[O-]	11
COc1ccc(CC(=O)NCc2nnc(SCC(=O)Nc3ncc(C)s3)n2C)cc1	8
Cc1ccc(Cl)cc1NC(=O)c1ccc(Cn2cc(Cl)cn2)cc1	-2
O=C(Nc1nnc(SCc2c(Cl)cccc2Cl)s1)c1ccc2ncsc2c1	7
NC(=S)N/N=C/c1coc2cc(Cl)ccc2c1=O	21
N/C(=N\OC(=O)c1ccccc1)c1ccncc1	17
O=C(c1ccc([N+](=O)[O-])o1)N1CCOCC1	7
CC1CCC(C(C)C)C(OC(=O)C[n+]2cc(-c3ccc(Cl)cc3)n3c2CCC3)C1 (configuration not stated)	14
CN(C)C(=O)c1cc2cc(Br)ccc2s1	18
CC(C)c1nc2sc3c(SCC(N)=O)ncnc3c2c2c1CCC2	23
Cc1nn(Cc2ccccc2)c(Cl)c1/C=C/C(=O)OC(C)C(=O)N1CCCC1 (configuration not stated)	20
CCCS(=O)(=O)N1CCN(Cc2ccc([N+](=O)[O-])cc2)CC1	11
O=C(Nc1ccc(N2CCOCC2)cc1)C1CCN(S(=O)(=O)c2ccccc2F)CC1	1
CCCCOP(=O)(c1ccc(N(C)C)cc1)C(O)c1cc(OC)c(OC)c(OC)c1 (configuration not stated)	15
Cc1ccccc1C1c2[nH]c3ccccc3c2CCN1C(=O)c1ccc(=O)n(C)n1 (configuration not stated)	12
O=C(O)c1ccn2c(C(=O)c3ccccc3)c(-c3ccccc3)cc2c1	20
COc1ccc2nc(SCC(=O)NC3CCCc4ccccc43)[nH]c2c1 (configuration not stated)	10
CC(=O)c1c(C)nc2ccc(C)cc2c1-c1ccccc1	-1
Cc1cccc(NC(=O)c2ccc(NCCc3ccccc3)c([N+](=O)[O-])c2)c1	22
CCOC(=O)C1(Cc2ccc(Cl)cc2)CCN(C(=O)c2ccoc2)CC1	12
Other compounds.
SMILES	Calb biofilm kill
NCCS(=O)(=O)NC1CCCCC1	10
NC(=O)c1ccc(-n2nc(C(F)(F)F)c3c2CCCC3)cc1	3
N#Cc1cccc(NC(=O)COC(=O)c2ccc3c(=O)n4c(nc3c2)CCC4)c1	9
COc1ccc2c(CC(=O)Nc3ncc(C)s3)coc2c1	10
O=C(CN1CCOCC1)NN=C(c1ccccc1)c1ccccc1	15
COc1ccc(NC(=O)c2cccs2)cc1	9
NS(=O)(=O)c1ccc(NC(=S)N2CCC(O)CC2)cc1	14
O=C(O)CCCC(=O)Nc1ccc(Oc2ncnc3cc(Cl)ccc23)nc1	20
CCNC(=S)NNc1ccccc1	11
Cc1ccc(CN2CCN(Cc3cccn3-c3nccs3)CC2CCO)cc1 (configuration not stated)	27
Cc1ccc(Nc2ccc(C(=O)NC3CCCCC3)cn2)cc1	23
O=C(NCc1ccccc1)c1ccc(Br)cc1	9
CC1(C)C2CCC1(C)C(OC(=O)CNc1ccccc1)C2 (configuration not stated)	16
COc1ccc(CN(CCC(c2ccccc2)C2CCOC(C)(C)C2)C(C)=O)cc1 (configuration not stated)	-14
Cc1cc(C)nc(NS(=O)(=O)c2ccc(N/C=C/C(=O)c3ccc(Cl)c(Cl)c3)cc2)n1	21
Cc1nn(-c2ccc([N+](=O)[O-])cc2)c2c1C(c1cccc(Br)c1)N1C(=N2)C(=O)Nc2ccccc21 (configuration not stated)	13
CCOC(=O)C1CSC2(CCC(c3ccccc3)CC2)N1 (configuration not stated)	11
Fc1ccccc1N=C1NN=C(c2ccccc2)CS1	-7
O=C(NCc1cccs1)C1CCCN1C(=O)Nc1ccc(F)cc1 (configuration not stated)	16
C=CCN1C(c2ccc(Br)cc2)=CS/C1=C(/C#N)c1nnc(N2CCOCC2)n1-c1ccccc1	-2
Cc1[nH]n2cnnc2c(=O)c1Br	27
O=c1c(-c2ccccc2)cnc2n1CCS2	-10
O=C(NCCCn1cccn1)c1cc(COc2ccc(F)cc2Cl)on1	16
Cc1ccc2cc(C3CC(c4cccs4)=NN3S(C)(=O)=O)c(Cl)nc2c1 (configuration not stated)	15
COCCOC(=O)C1=C(N)OC2=C(C(=O)CC(C)(C)C2)C1c1ccncc1 (configuration not stated)	8
COc1ccc([N+](=O)[O-])c(S(=O)(=O)c2ccccc2)n1	6
Cc1ccc(OCC(=O)c2cc(C)n(C)c2C)c([N+](=O)[O-])n1	14
CC(=O)NC(CSc1cc(C)nc2ccc(Br)cc12)C(=O)O (configuration not stated)	19
CCN(CC)c1cc(-c2ccccc2)ncn1	18
Cc1ccc(CN2CCc3c(OCC(=O)Nc4cccc(C)c4C)cccc3C2=O)cc1	7
O=C(O)c1ccccc1C(=O)Nc1ccc(-n2nc(C(F)(F)F)cc2C(F)(F)F)cc1	20
O=c1c2cnn(-c3ccccc3)c2ncn1CCc1ccccc1	13
Cc1ccnc(SCC(=O)c2cc3ccccc3o2)n1	4
CCSc1nnc(-c2ccccc2SC)o1	13
O=C(COC(=O)C(O)C(O)C(=O)OCC(=O)c1ccc(C(F)(F)F)cc1)c1ccc(C(F)(F)F)cc1 (configuration not stated)	12
COc1ccc(/C=C2\SC(=S)N(NC(=O)c3ccncc3)C2=O)cc1OC	12

In a second layout: results already given
| Molecule | Calb biofilm kill |
| --- | --- |
| COCCOC(=O)C1=C(N)OC2=C(C(=O)CC(C)(C)C2)C1c1ccncc1 (configuration not stated) | 8 |
| COc1ccc([N+](=O)[O-])c(S(=O)(=O)c2ccccc2)n1 | 6 |
| Cc1ccc(OCC(=O)c2cc(C)n(C)c2C)c([N+](=O)[O-])n1 | 14 |
| CC(=O)NC(CSc1cc(C)nc2ccc(Br)cc12)C(=O)O (configuration not stated) | 19 |
| CCN(CC)c1cc(-c2ccccc2)ncn1 | 18 |
| Cc1ccc(CN2CCc3c(OCC(=O)Nc4cccc(C)c4C)cccc3C2=O)cc1 | 7 |
| O=C(O)c1ccccc1C(=O)Nc1ccc(-n2nc(C(F)(F)F)cc2C(F)(F)F)cc1 | 20 |
| O=c1c2cnn(-c3ccccc3)c2ncn1CCc1ccccc1 | 13 |
| Cc1ccnc(SCC(=O)c2cc3ccccc3o2)n1 | 4 |
| CCSc1nnc(-c2ccccc2SC)o1 | 13 |

The results go on.
SMILES	Calb biofilm kill
Cc1cccnc1NC(=O)c1ccc([N+](=O)[O-])o1	23
O=C1CCCc2c1[nH]c1ccc(Br)cc21	11
Cc1csc(NC(=O)CCNC(=O)c2ccc([N+](=O)[O-])cc2)n1	19
S=C(NCCc1ccccc1)Nc1ccc(Br)cc1	17
CC(=O)Nc1ccc(C(=O)Nc2nc(-c3cccnc3)cs2)cc1	1
COc1ccc(C(=O)NNC(=O)Nc2ccc(C)cc2)cc1	14
O=C(NCc1cccnc1)c1ccc(COc2ccccc2Cl)o1	18
O=C(CCCOc1ccccc1)Nc1ccc(Cl)cn1	13
CCOc1ccc(C(=S)N2CCCC2)cc1OC	4
Cn1nc(-c2ccccc2)c(CN2CCN(c3ncccn3)CC2)c1Cl	14
COc1cc(O)cc(O)c1C(=O)/C=C/c1ccccc1	0
COc1ccc(Cc2nnc(NC(=O)C(C)C)s2)cc1	31
CCNC(=O)NC(=O)C(C)OC(=O)CCCc1nc2ccccc2s1 (configuration not stated)	-1
CCc1cc(=O)oc2cc(C)cc(OCC(=O)C(C)(C)C)c12	2
OCC1(Cc2ccc(Cl)cc2)CCN(Cc2ccc(F)c(F)c2)CC1	5
O=C(c1ccc(OC2CCN(CCc3ccccc3)CC2)cc1)N1CCCC(O)C1 (configuration not stated)	11
Cc1ccc(S(=O)(=O)C2C(=O)NC3(C)CC2c2ccccc2O3)cc1 (configuration not stated)	18
O=C(Nc1cccc2c1C(=O)NC2=O)c1ccc(N2C(=O)CCC2=O)cc1	14
Cc1[nH]ccc(=O)c1OCC(=O)O	26
Cc1ccc(-n2cc(CNCC3CC(=O)N(C4CC4)C3)c(-c3cccc(C)c3)n2)cc1 (configuration not stated)	11
COc1ccccc1OCCn1cc(C#N)c2ccccc21	7
O=C(CCCO)N/N=C/c1cc(Br)ccc1O	18
CCCn1c(SCc2nc(N)nc(N3CCCCC3)n2)nc2c1c(=O)n(C)c(=O)n2C	25
Nc1ccc2[nH]ncc2c1	15
Cc1ccc(S(=O)(=O)N2CCN(C(C(=O)Nc3ccc(F)cc3)c3ccccc3)CC2)cc1 (configuration not stated)	8
O=C(CCSc1nnc(-c2ccco2)o1)Nc1ccc(F)cc1	25
C=CCSc1cc(C)nc2c(-c3ccccc3)cnn12	14
COc1ccc(/C=C/C(=O)c2ccccn2)cc1	20
CN(C)CCCNS(=O)(=O)c1ccc(Cl)s1	14
